Assay outcomes from PubChem BioAssay.
TRPV1 PAM = enhances activation of the human vanilloid receptor TRPV1; Q8NER1; TRPV1-expressing cells, Fluo-8 calcium influx, capsaicin EC20 potentiation; host cell line not named in the record; control for the full effect not named in the record; potentiation, % at 8.33 µM; actives 0.02% (n = 320,000); AID 540277; active means potentiation above 80%; inconclusive means 30% to 80%; inactive means below 30%; note: 0% is about no effect
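Cells expressing TRPV1 were dye-loaded with Fluo-8 and read kinetically: 10 s baseline, 3 min after compound (agonist portion), then 2 min after EC20 capsaicin (allosteric enhancer portion). Calcium-bound dye fluorescence at 480/520 nm.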
Sfp inh = inhibitors of Bacillus subtilis Sfp phosphopantetheinyl transferase; AID 1490; Biochemical Sfp PPTase activity, qHTS; Potency, µM, for inactives: max response, negative = inhibition, hits mostly inhibitors; actives 3.5% (n = 310,000); active = well fitted inhibition curve with a large enough effect; inconclusive = small, poorly fitted or top-dose-only effect, or another doubt; inactive = no such curve, though single readings can be large or run the other way;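 note: the enzyme is Sfp with the accession as filed and its product quenches rhodamine fluorescence; potency is the fitted concentration of half-maximal effect; 0% = enzyme reaction without inhibitor and -100% = no enzyme wells; top concentration of the series not given in the record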
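Fluorescence-quenching assay with 15 nM Sfp, 5 uM rhodamine-CoA and 12.5 uM BHQ-2-labelled ybbR peptide in pH 7.6 Hepes/MgCl2 buffer. Enzyme was pre-incubated with compound for 15 min at room temperature. Rate was taken from the 30-min fluorescence change (525/598 nm).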
Menin-MLL FL inh = menin-MLL binding inhibition, fluorescein peptide. Fluorescence polarization, fluorescein-MLL peptide displacement from menin. FP activity change, % at 61.4 µM. 290,000 tested, under 10 active; inconclusive = falling polarisation curve, or a change in total fluorescence; inactive = total fluorescence flat and polarisation flat or rising; no compound was filed as active; the % refers to the polarisation; negative = inhibition;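 note: % of control where 0% means no effect; inhibitors lower the polarisation; unlabelled MLL peptide was the positive control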
D2 PAM = potentiates the human D2 dopamine receptor allosterically; P14416; potentiation, % (test concentration not listed); actives 0.23% (n = 360,000); DiscoveRx D2 beta-arrestin cells, luminescence, 90 min; 100% = 57 uM dopamine signal; active = potentiation of 50% or more; inconclusive = 30% to 50%; inactive = 30% or less;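 note: compound concentration not given in the record; tested on top of an EC20 dose of dopamine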
Target sequence (P14416 whole entry, looked up): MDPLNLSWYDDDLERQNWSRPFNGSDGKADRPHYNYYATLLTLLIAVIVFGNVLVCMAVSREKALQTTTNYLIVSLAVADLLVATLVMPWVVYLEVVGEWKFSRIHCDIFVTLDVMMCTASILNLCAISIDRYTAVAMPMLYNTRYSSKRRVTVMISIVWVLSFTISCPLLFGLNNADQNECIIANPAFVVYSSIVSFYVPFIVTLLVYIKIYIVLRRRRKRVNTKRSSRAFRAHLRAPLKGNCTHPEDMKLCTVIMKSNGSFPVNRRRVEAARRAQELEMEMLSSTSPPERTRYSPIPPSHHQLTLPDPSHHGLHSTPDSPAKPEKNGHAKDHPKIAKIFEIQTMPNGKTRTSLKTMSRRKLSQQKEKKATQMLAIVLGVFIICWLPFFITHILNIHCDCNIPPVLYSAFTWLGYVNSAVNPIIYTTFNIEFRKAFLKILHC
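PathHunter D2 cells, attached overnight at 37 deg C, received compound in DMSO plus dopamine at EC20 (50 nM final) for 90 min at 37 deg C. Beta-arrestin recruitment was read as luminescence after 1 h with detection reagent at ambient temperature.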
gsp antag = antagonizes gsp, the McCune-Albright syndrome mutation. gsp-mutant cells, cAMP HTRF, 30 min; control for the full effect not named in the record. Potency, µM (titrated, usually from 76.9 µM), inactives show top-dose activity change, negative = inhibition, actives largely listed as inhibitors. actives 0.4% (n = 340,000); active = falling curve of any shape with a large fitted effect; inconclusive = falling curve, mostly with a smaller effect; inactive = flat or rising curve; cell line not stated here;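 note: intracellular cAMP measured with PDE inhibitor Ro 20-1724 present during compound exposure; potency is the fitted concentration of half-maximal effect; % is set by controls: 0 for no effect and ±100 for the full control effect; nearly all actives have a fitted effect of over 65% in size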
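G418-selected cells were plated in DMEM/10% FBS for 16-24 h at 37C, then treated with compounds plus the PDE inhibitor […] (300 uM solution added) for 30 min at 37C. Intracellular cAMP was measured by HTRF after 30 min lysis at room temperature.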
gsp ag = activates gsp, the McCune-Albright syndrome mutation | AID 624287 | gsp mutant cells, cAMP HTRF, 30 min; control for the full effect not named in the record | actives 0.13% (n = 340,000) | Potency, µM (series often up to 76.9 µM), inactives show top-dose activation (cAMP increase), hits mostly activators; active = well fitted activation curve with a large enough effect; inconclusive = small, poorly fitted or top-dose-only effect, or another doubt; inactive = no such curve, though single readings can be large or run the other way; cell line not stated here;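 note: phosphodiesterase inhibitor Ro 20-1724 added with compounds to block cAMP breakdown; potency is the fitted concentration of half-maximal effect; nearly all actives have a fitted effect of over 60% in size; about a fifth of the inactives were tested at one dose only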
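Cells stably selected in G418 were plated at 2000/well, grown 16-24 hr, then given compounds in DMSO with the PDE inhibitor […] (300 uM solution added) for 30 min at 37C; cAMP was read by HTRF.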
ClpP mod = qHTS Assay for Activators of ClpP; ATP-dependent Clp protease proteolytic subunit (Bacillus subtilis (strain 168)), P80244; actives 1.9% (n = 340,000); Potency, µM (series often up to 57.5 µM), inactives show top-dose activity change, negative = active; AID 651965, 2013; purified B. subtilis ClpP, FRET peptide cleavage, 20 min; active = well fitted falling curve with a large enough effect; inconclusive = small, poorly fitted or top-dose-only effect; inactive = no such curve, though single readings can be large or run the other way; note: potency is the fitted concentration of half-maximal effect; the source files actives as falling curves though it sought activators and does not explain the sign; nearly all actives have a fitted effect of over 65% in size; many hits overshoot -100%
Target sequence (P80244 whole entry, looked up): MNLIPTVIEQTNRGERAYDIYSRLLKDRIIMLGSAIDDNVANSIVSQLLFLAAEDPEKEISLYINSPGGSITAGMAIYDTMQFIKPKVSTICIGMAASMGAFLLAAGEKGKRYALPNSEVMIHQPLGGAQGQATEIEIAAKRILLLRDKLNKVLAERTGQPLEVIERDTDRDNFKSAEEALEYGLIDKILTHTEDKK
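Purified B. subtilis ClpP, 10 microg/mL final in Tris/HCl pH8 with KCl, BSA, glycerol and Tween-20, cleaved an Abz/nitrotyrosine-quenched decapeptide. Fluorescence (ex 320, em 430) was read at 0 and 20 min at room temperature. Delta was normalized to 5.8 microM ADEP and DMSO/no-enzyme controls.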
An asterisk follows results filed as active; ? = inconclusive; . = not tested or not shown; & = joins results of further samples; [ ] = remark or other dose.

SMILES | TRPV1 PAM | Sfp inh | Menin-MLL FL inh | D2 PAM | gsp antag | gsp ag | ClpP mod
CCOC(=O)C(=CNc1ccccc1C)C(=O)OCC | 3 | 8% | 2.5 | 3 | 20µM* | 35% | -1.1%
O=C(NCc1ccccc1)NC1(C(=O)N2CCN(c3ccccc3)CC2)CCCCC1 | 8 | 10% | -2.5 | 4 | 2% | -3% | 1.9%
COc1ccc(CCNC(=O)CN2C(=O)COc3ccc(S(=O)(=O)N4CCCC4)cc32)cc1OC | -3 | 10% | 3.7 | -4 | -15% | 13% | -1.0%&-0.5%
Cc1nc(-c2ccccc2)sc1C(=O)CSc1ccc(F)cc1 | -18 | -16% | -0.4 | 3 | -5%[15.4 µM] | -33%[inhibitor] | 1.4%
COCCNc1c2c(nc3ccccc13)CCC2 | 10 | 14% | 3.2 | -7 | 20% | -26% | .
O=C1NC(=O)/C(=C\c2ccccc2OCc2ccccc2)S1 | 17 | 10% | -1.6 | 1 | ? | -44%[inhibitor] | .
CSCC[C@@H](CO)NC(=O)c1ccc2nc(C3CCCCC3)oc2c1 | 0 | 7% | 2.8 | -1 | 12% | -33%[inhibitor] | 0.7%
CCn1c(=O)c2sccc2n2c(CCCC(=O)NCc3cccnc3)nnc12 | -38 | 15% | 2.3 | -2 | 11% | ? | -1.1%
O=C(CN1CCN(C(=O)N2CCOCC2)CC1)Nc1cc(Cl)ccc1Cl | -12 | 0% | 0.0 | -8 | -6% | 9% | .
Fc1ccc(-c2cnc(-c3cccs3)o2)cc1 | 0 | ? | 1.5 | -5 | -12% | 12% | 6.3µM*
Cc1cccc(N=C/C(C(=O)C(F)(F)F)=C(\O)c2ccco2)c1 | ? | 8% | 2.9 | -14 | -14% | -2% | -8.0%
O=C(Cn1c2ccc(F)cc2c2nc3n(c(=O)c21)CCS3)NCC1CCCO1 (stereo unspecified) | -32 | 16% | 0.2 | -5 | 25% | 65%[15.4 µM] | -0.5%
CCCNC(=O)NS(=O)(=O)c1cnccc1Sc1ccc(Cl)cc1 | -2 | 19% | 3.1 | -3 | -6% | -47%[inhibitor] | 1.6%
Cc1cc(C(=O)COC(=O)CCCN2C(=O)c3ccccc3C2=O)c(C)n1C | 9 | 9% | -1.8 | -15 | 8% | -11% | -0.2%
Cc1ccc(-n2c(SCC(N)=O)nc3c(c2=O)C2(CCCC2)Cc2ccccc2-3)cc1 | -5 | 14% | 14 | -30 | 0% | ? | -15%
Cc1c(-n2cc(C(=O)O)c(=O)c3cc(F)c(N4CCCC4)c(F)c32)c(=O)n(-c2ccccc2)n1C | 1 | -8% | 3.4 | 12 | 6% | -3% | -4.8%
Cc1cc(NC(=O)c2cc3ccccc3o2)no1 | . | . | . | -4 | -7% | 7%[15.4 µM] | .
CC(Oc1ccccc1)c1nnc(N)s1 (stereo unspecified) | -17 | 5% | 0.3 | 7 | . | -1%[15.4 µM] | .
c1cncc(-c2nnc(SCc3nc4ccccc4[nH]3)o2)c1 | -8 | 9% | 2.3 | -10 | 11% | 22% | -0.4%
CC(C)(C)c1ccc(S(=O)(=O)NCC2CCCO2)cc1 (stereo unspecified) | -3 | 9% | 1.5 | -4 | 10% | 9% | -3.7%
Cc1ccc(OCCCNC2CCCC2)cc1 | -8 | 6% | 1.2 | -4 | 11% | 15% | -1.0%
CC1CCN(CCNC(=O)c2ccc3c(=O)n(Cc4ccc(Cl)cc4)c(=S)[nH]c3c2)CC1 | 1 | -18% | . | -6 | 9% | 0% | -1.3%
Cc1ccc(N2C(=O)c3oc4ccccc4c(=O)c3C2c2cccc(O)c2)nc1 (stereo unspecified) | . | . | . | -3 | ? | -66%[inhibitor] | -1.6%
O=C(O)c1c[nH]c2ccc(S(=O)(=O)N3CCN(c4ccc(F)cc4)CC3)cc2c1=O | -4 | 20% | -1.4 | -6 | 1% | -16% | -11%

3 entries already listed, ordered by their value in Sfp inh, low to high.
SMILES | Sfp inh | Menin-MLL FL inh | D2 PAM | gsp antag | gsp ag
Cc1ccc(OCCCNC2CCCC2)cc1 | 6% | 1.2 | -4 | 11% | 15%
Cc1cc(C(=O)COC(=O)CCCN2C(=O)c3ccccc3C2=O)c(C)n1C | 9% | -1.8 | -15 | 8% | -11%
Cc1ccc(-n2c(SCC(N)=O)nc3c(c2=O)C2(CCCC2)Cc2ccccc2-3)cc1 | 14% | 14 | -30 | 0% | ?

Other results
SMILES | TRPV1 PAM | Sfp inh | Menin-MLL FL inh | D2 PAM | gsp antag | gsp ag | ClpP mod
O=c1[nH]c2ccc(Br)cc2c(-c2ccccc2)c1N1CCOCC1 | ? | 21% | 0.3 | -5 | -2% | 15% | 3.7%
C/C(CC(=O)Nc1cccnc1)=N\NC(=O)C(=O)NC(C)C | -6 | -2% | -0.3 | 5 | 2% | 2% | 1.6%
N#CCc1nc(-c2cc3ccccc3oc2=O)cs1 | -1 | 7% | 6.5 | -2 | -11% | 9% | .
Cc1ccc(CNC(=O)CCNC(=O)Cn2ccc3ccccc3c2=O)cc1 | 23 | 13% | 3.1 | -6 | 0% | -27% | -19%
COCC(=O)N1CCC(Oc2ccc(C(=O)N3CCSCC3)cc2)CC1 | -2 | 10% | . | -11 | 14% | -8%[15.4 µM] | 0.5%
O=C(/C=C/c1c[nH]c2ccccc12)c1ccccc1 | -21 | -28% | ? | -27 | -3% | -6% | 1.3%
CCOc1ccc(C(C(=O)NC2CCCCC2)N(C(=O)c2ccccn2)c2cccnc2)cc1 (stereo unspecified) | 15 | 15% | -2.9 | -4 | -3% | 9%[15.4 µM] | .
CS(=O)(=O)Nc1ccc(C(=O)Nc2ccc3ccccc3c2)cc1 | -1 | 18% | 3.3 | -8 | ? | -2%[15.4 µM] | -7.6%
CCCC1=C(C(=O)OCC)C(c2ccc(OC)c(C)c2OC)C(C#N)=C(N)O1 (stereo unspecified) | -10 | -7% | 0.5 | -5 | -5% | 9% | 0.1%
CCCC1(c2ccccc2)NC(=O)N(CC(=O)c2[nH]c(C)c(C(=O)OCC)c2C)C1=O (stereo unspecified) | -8 | 17% | -3.4 | -6 | 2% | 5% | 0.4%
ClCC1CSC(=NC23CC4CC(CC(C4)C2)C3)O1 (stereo unspecified) | -23 | -11% | -0.6 | -11 | -1% | 5% | -3.4%
Cc1c(NC(C)C)c(=O)n(-c2ccccc2)n1C | -8 | ? | 0.2 | -14 | 27% | . | -0.9%
CC(C)C(=O)Nc1nnc(CCN2CCCCC2)s1 | 18 | 17% | 0.7 | -1 | 7% | 27% | -1.6%
O=S(=O)(Cc1nnnn1-c1ccccc1)c1ccc(Cl)cc1 | 1 | 7% | -0.4 | -8 | 10% | 7%[15.4 µM] | 0.5%
CSc1nc(C=Nc2ccccc2Cl)c(O)n1Cc1cccc(Cl)c1 | 8 | -21% | 22 | -5 | -17% | 13%[15.4 µM] | -0.2%
O=C(C1CCOCC1)N1CCCC(N2CCN(c3ccc(F)cc3)CC2)C1 (stereo unspecified) | 2 | 7% | . | -14 | 5% | -1% | -2.7%
CCCCOc1ccc(-c2nc(-c3cccnc3)no2)cc1 | 18 | -7% | -1.1 | -7 | 7% | 5% | -20%
Cc1ccc(Cn2c(O)c(N=NC(=S)Nc3ccccc3F)c3cc(S(=O)(=O)N4CCOCC4)ccc32)cc1 | 9 | 21% | -1.8 | -2 | -22% | -42%[inhibitor] | 1.2%
CN1CCN(C(=O)C2=C[C@@H](c3ccc(Br)cc3)C[C@@H](OCc3ccc(CO)cc3)O2)CC1 | -2 | -14% | -2.3 | -8 | 1% | -34%[inhibitor] | 1.1%
CCN(C(=O)COC(=O)c1cc2ccccc2cc1O)C1CCS(=O)(=O)C1 (stereo unspecified) | -5 | -3% | 0.8 | 14 | 6% | 7% | -6.5%
Cn1c(N)c(C(=O)COC(=O)COc2cccc(Br)c2)c(=O)n(C)c1=O | . | . | . | -2 | 4% | -8% | 1.4%
O=S(=O)(NCC1COc2ccccc2O1)c1ccccc1F (stereo unspecified) | . | . | . | -5 | -7% | -23% | 3.0%
O=C(NCCNCCO)C1(C(F)(F)F)C/C(=C\CCO)CCCO1 (stereo unspecified) | . | 7% | 0.2 | 11 | 13% | . | -0.7%
COc1ccc(OC)c(NC(=O)C2CC(=O)N(Cc3ccco3)C2)c1 (stereo unspecified) | 3 | . | . | -12 | 1% | 0% | -2.8%

Only Sfp inh and D2 PAM (two entries from above):
smiles | Sfp inh | D2 PAM
O=S(=O)(NCC1COc2ccccc2O1)c1ccccc1F (stereo unspecified) | . | -5
O=C(NCCNCCO)C1(C(F)(F)F)C/C(=C\CCO)CCCO1 (stereo unspecified) | 7% | 11

(next part)
SMILES | TRPV1 PAM | Sfp inh | Menin-MLL FL inh | D2 PAM | gsp antag | gsp ag | ClpP mod
O=C(Cn1c(=S)[nH]c2ccccc21)c1ccccc1 | -13 | -18% | 7.3 | -11 | 4% | -41%[inhibitor] | -3.3%
COc1ccc(C(=O)NCc2cccnc2)cc1S(=O)(=O)N1CCOCC1 | 0 | 26% | 2.7 | 1 | 4% | 5% | -1.4%
CCOc1ccc(C(=O)NCCN2CCOCC2)cc1 | 17 | 4% | -3.7 | -9 | 7% | 0%[15.4 µM] | -28%
Cc1cc(=O)[nH]c(SCC(=O)Nc2cccc(C(F)(F)F)c2)n1 | 0 | 6% | 1.2 | -5 | -13% | 10% | -0.6%
CCN(CC)CCn1c2ccccc2c2nc(C)sc21 | -8 | -3% | 1.5 | -26 | 7% | -31%[inhibitor] | -0.9%
COc1ccc(C2C(C#N)=C(N)N(c3ncn[nH]3)C3=C2C(=O)CCC3)cc1 (stereo unspecified) | -5 | -12% | 9.0 | -1 | 1% | 15%[15.4 µM] | .
C=CCOc1ccc(/C=N/NC(=O)CN2CCOCC2)cc1OCC | -12 | 12% | -2.1 | 1 | 4% | 22% | .
C=C1CCC[C@]2(C)C[C@H]3OC(=O)C(CNCC(C)C)[C@H]3CC12 (stereo partly specified) | 17 | 0% | -4.4 | 3 | 8% | ? | 0.2%
Cc1ccc(S(=O)(=O)NC(=O)NCc2ccccn2)cc1 | 4 | 6% | 6.2 | -7 | 5% | -3% | -2.3%
O=c1ccn(Cc2ccccc2)c(SCc2ccccc2)n1 | . | . | . | -17 | 0% | -1% | 16µM*
